# Marburg entry – Marburg virus entry inhibition; Marburg virus pseudotype entry/binding inhibition, cell-based; control for the full effect not named in the record; many of its hits are not listed in these tables; Potency, µM (series often up to 49.2 µM), inactives show at the highest dose activity change, negative = inhibition, actives largely listed as inhibitors; actives 6.5% (n = 18,000); active means well fitted inhibition curve with a large enough effect; inconclusive means small, poorly fitted or top-dose-only effect; inactive means no such curve, though single readings can be large or run the other way; tested in HEK293 cells; further: luciferase read-out
# Lassa entry – inhibitors of Lassa virus binding or entry into cells; Lassa virus pseudotyped entry inhibition, cell-based qHTS; control for the full effect not named in the record; many of its hits are not listed in these tables; Potency, µM (doses to about 49.2 µM), without a hit: at the highest dose activity change, negative = inhibition, hits mostly inhibitors; actives 4.1% (n = 18,000); AID 720533; active = well fitted inhibition curve with a large enough effect; inconclusive = small, poorly fitted or top-dose-only effect; inactive = no such curve, though single readings can be large or run the other way; tested in HEK293 cells; further: luciferase read-out
# Starred values were filed as active, the others as inactive; ? = inconclusive; nt = no result given; & = joins results of further samples; [ ] = remark or other dose. On the % scale 0 is the no-effect control and ±100 the full control effect; potency means the concentration at half of the fitted maximal effect. The list is partial (hit frequency here may not be typical).
SMILES,Marburg entry,Lassa entry
Cc1cc(C)cc(NC(=O)C2CC23CCN(Cc2ccc4ncccc4c2)CC3)c1 (configuration not stated),?,-0.7%
O=C1CC(c2ccc(O)c(O)c2)Oc2cc(O)cc(O)c21 (configuration not stated),33.7%,18.1%
CC[C@@]1(c2ccccc2)NC(=O)NC1=O,11.0%,-3.1%
CCC(=O)O[C@H]1CC[C@H]2[C@@H]3CCc4cc(O)ccc4[C@H]3CC[C@]12C,-29.9%,?
CCNC(=O)c1cc(NC(=O)COC)cc2nc(-c3ccncc3)n(C)c12,4.9%,-13.2%
C[C@H]1CN(c2ccccc2)C(=O)[C@H]1CC(=O)Nc1ccccc1,23.6%,12.9%
Cc1nnc2n1-c1sc(Br)cc1C(c1ccccc1Cl)=NC2,0.9%,?
CCCCCCN1C[C@@H](n2cc(C3CC3)nn2)[C@H](O)C[C@H]1c1ccccc1,?,nt
COc1ccc(NC(=O)C[C@@H]2C(=O)N(Cc3ccccc3)CC2(C)C)cc1,17.2%,7.7%
CC1CC[C@@]2(OC1)OC1C(O)C3C4CC[C@H]5CC(O[C@@H]6O[C@@H](CO)[C@H](OC7OC(CO)C(O)C(OC8OCC(O)C(O)[C@H]8O)[C@@H]7O[C@@H]7OC(CO)[C@H](O)[C@@H](O[C@@H]8OC(CO)C(O)C(O)C8O)C7O)C(O)C6O)C(O)C[C@]5(C)C4CC[C@]3(C)C1C2C (some centres not stated),?,14.1µM*
COc1cc2c(cc1O)CCC1C2CC[C@@]2(C)C1CC[C@@H]2O (some centres not stated),?,-25.8%
Cc1cc(C)nc(S[C@H]2C[C@@H](C(=O)N3CCN(c4ccccc4F)CC3)N(Cc3ccccc3C(F)(F)F)C2)n1,-19.3%,-8.4%
C=CCSc1nnc(C2CCCN(Cc3ccccc3O)C2)n1C (configuration not stated),-26.6%,9.5%
COc1ccccc1N1CCN(CCCNc2c(C)c(=O)n(C)c(=O)n2C)CC1,-3.1%,-10.9%
COc1ccc2c(c1O)-c1cc(O)cc3c1[C@@H](C2)N(C)CC3,?,-19.1%
CC[C@@H]1CN2CCc3cc(OC)c(OC)cc3[C@H]2C[C@@H]1C[C@@H]1NCCc2cc(O)c(OC)cc21,?,0.355µM*
O=S(=O)(NCCNC/C=C/c1ccc(Br)cc1)c1cccc2cnccc12,12.6µM*,-7.4%&0.7%
O=C(NCC1(N2CCOCC2)CCCCC1)c1cnn(-c2nccc(-c3ccco3)n2)c1C1CC1,-16.3%,-20.9%
CCCCN1C[C@H](CSC)[C@@H](CC(=O)NC)C1=O,8.8%,13.2%
O=C(N[C@H](c1cccc(Br)c1)[C@@H]1CCCC=C1c1ccccc1)C(F)(F)F,-42.6%[8.59 µM],-3.1%[8.59 µM]
CC(C)C[C@@H](CC(=O)N[C@@H](CCC(=O)O)CC(=O)O)NC(=O)[C@@H]1CCCC[C@H]1NC(=O)C[C@@H](NC(=O)C[C@H](CO)NC(=O)[C@@H]1CCCC[C@H]1N)C(C)C,8.8%,-3.8%
Cc1ccc([C@H]2C[C@H](n3cc(COC(=O)c4ccccc4)nn3)[C@@H](O)CN2Cc2cccs2)cc1,-11.5%,-15.4%
CCC(=O)O[C@H]1[C@@H](N2CCCCC2)C[C@H]2[C@@H]3CC[C@H]4C[C@H](OC(C)=O)[C@@H](N5CCCCC5)C[C@]4(C)[C@H]3CC[C@@]21C,3.55µM*,?
C[C@@]12CCC[C@H]1[C@@H]1CC[C@H]3C[C@@H](O)CC[C@]3(C)[C@H]1CC2,-8.6%,-6.2%
c1ccc([Se]c2c(-c3ccccc3)[se]c3ccccc23)cc1,2.0%,-9.2%
# Remaining list, next part.
SMILES,Marburg entry,Lassa entry
Cc1ccc(S(=O)(=O)N2CCC(=O)N(CCOCc3ccc(C(F)(F)F)cc3)CC2)cc1,?,-12.2%
O[C@H]1[C@H]2c3cc4c(cc3CN3CCC(=C[C@@H]1O)[C@H]23)OCO4,1.4%,17.5%
CC(=O)OC1CC2C(C)(C)C=CC(=O)[C@@]2(C)C2CC[C@@]3(C)C(c4ccoc4)OC(=O)C4OC43[C@]12C (some centres not stated),7.9%,18.1%
C[C@@H]1C=CCCO[C@]12C(=O)N(Cc1ccccc1C(F)(F)F)c1cccc(Br)c12,?,-27.7%[8.59 µM]
CC[C@H]1C2CC3[C@@H]4N(C)c5ccccc5[C@]45C[C@@H](C2[C@H]5O)N3[C@@H]1O (some centres not stated),?,-3.9%
COc1ccc(-c2nc(-c3ccccc3)oc2NC(C)C)cc1,-0.5%,17.5%
O[C@@H](c1cc(C(F)(F)F)nc2c(C(F)(F)F)cccc12)[C@H]1CCCCN1,10µM*,28.2µM*
N[C@@H](Cc1cc(I)c(O)c(I)c1)C(=O)O,-9.1%,-17.4%
COc1cc(C(C)=O)ccc1OCc1cn(CC(=O)c2ccc(O)cc2)nn1,6.0%,nt
COc1ccc2c(c1)[C@@]1(OCCC=C[C@@H]1C)C(=O)N2Cc1ccc(F)cc1,27.7%[8.59 µM],39.8%[activator][8.59 µM]
C1=C(CN2CCOCC2)COc2c1cccc2OC[C@@H]1CNCCO1,?,-6.1%
COc1ccc2c(CN3CCN(C(C)=O)CC3)cc(=O)oc2c1,41.0%[activator],3.8%
C=CC[C@@H]1C=C(C(=O)OC)N(C(=O)C(F)(F)F)[C@@H](c2ccccc2Br)[C@@H]1C,9.1%[8.59 µM],2.9%[8.59 µM]
Cc1ccc([N+](=O)[O-])cc1S(=O)(=O)N(C)C,-19.1%,4.7%
O=NN(CCCl)C(=O)NCCCl,0.3%&9.4%,-7.3%&2.2%
N#Cc1cccc(-c2nc(Nc3ccccc3)c3ccccc3n2)c1,11.8%,-12.4%
COc1cc(CNC(=O)CCCCCCC(C)C)ccc1O,-1.7%,-10.7%
COc1cc(C)c(CC/C(C)=C/C=C/C(C)=O)c(C)c1C,-14.9%,-4.8%
COc1ccccc1C1CN(CCNC(=O)c2sccc2Cl)Cc2ccccc2O1 (configuration not stated),-1.0%,-3.2%
CC[C@H]1OC(c2ccccc2)[C@H](C)[C@H]2O[C@@H]2[C@@H]1C(=O)OC (some centres not stated),-5.4%[8.59 µM],-12.1%[8.59 µM]
CCN1C[C@@]2(COC(=O)c3ccccc3N3C(=O)CC(C)C3=O)CC[C@H](OC)[C@]34C5C[C@@H]6[C@@H](OC)C[C@@](O)(C5[C@H]6OC)[C@@](O)(C13)[C@@H](OC)C24 (some centres not stated),-13.6%,5.1%
CC(C)=Cc1cccc2[nH]c(O)c(N=Nc3ccc(S(N)(=O)=O)cc3)c12,?,?
NCCC[C@@H](CC(=O)N[C@@H]1CCNC[C@H]1C(=O)N[C@H](CC(=O)N[C@@H](CCC(=O)O)CC(=O)O)Cc1ccccc1)NC(=O)C[C@H](Cc1c[nH]c2ccccc12)NC(=O)[C@@H]1CCCC[C@H]1N,-5.5%,-4.0%
COC(=O)CCCC1=CC2=CC(=O)C(C)(OC(=O)c3ccco3)C(=O)C2=CO1 (configuration not stated),9.7%,7.2%
O=[N+]([O-])c1ccc(CN2[C@H](COCc3ccccc3)[C@@H](N3CCCC3)CS2(=O)=O)cc1,7.8%,15.0%
# (listing goes on)
SMILES,Marburg entry,Lassa entry
CSc1nc(NC2CCCC2)c([N+](=O)[O-])c(NC2CCCC2)n1,-5.7%&-10.6%,2.1%&-14.1%
Cc1ncc2c(c1CNC(=O)CN1CCCC1)CCN(C(=O)c1ccc(F)cc1F)C2,?,-4.6%
Cc1cc(O)c2c(c1)C(=O)c1cc(O)cc(O)c1C2=O,25.0%,-7.1%
CCOC(=O)Cn1c(=O)sc2cccc(Cl)c21,17.7%,-6.5%
CCCOCCN(C(=O)CCl)c1c(CC)cccc1CC,-7.7%,-10.2%
CCCCN1CC(COCc2ccccc2)Oc2ccccc2S1(=O)=O (configuration not stated),7.2%,nt
C=CCSCC1Nc2cc(Cl)c(S(N)(=O)=O)cc2S(=O)(=O)N1 (configuration not stated),5.5%,5.1%
Cc1cccc(CN2CCN(C3CN(C4CCCC4)S(=O)(=O)C3)CC2)c1 (configuration not stated),1.5%,10.8%
Cn1ccc2c(-c3ccc(F)cc3F)cc3c(c21)C1CCC3O1 (configuration not stated),-24.4%,-30.6%
CC(C)(O)c1[se]c2ccccc2c1I,?,?
O=C(Nc1ccc(F)cc1)OCCN1CCN(Cc2ccccc2)CCC1=O,1.6%&-28.3%,-3.6%&-24.9%
COCOCCn1cc(CN2CCS(=O)(=O)N(Cc3ccc(-c4ccc(Cl)c(Cl)c4)cc3)C(C(C)C)C2=O)nn1 (configuration not stated),?,?
COc1ccc(-c2nc(-c3ccccc3)c(Nc3ccc4ccccc4c3)o2)cc1,?,33.3%[activator]
CCOC(=O)C1=C(C)c2ccccc2N(S(=O)(=O)C(F)(F)F)C1C(=O)OCC (configuration not stated),3.4%,-9.8%
Cc1cnc(SCc2ccccn2)nc1C1CCCN(C(=O)c2coc3c2C(=O)CCC3)C1 (configuration not stated),2.6%,-8.5%
CC(C)(C)c1ccc2c(c1)C(c1ccc3c(c1)OCO3)CC(=O)O2 (configuration not stated),?,-8.4%
CSc1nnc(CCNC(=O)c2ccccc2C(F)(F)F)n1-c1ccc(F)cc1,-12.0%,-12.4%
CN(CC1(C)CCCO1)S(=O)(=O)c1ccc(Cl)c(S(N)(=O)=O)c1 (configuration not stated),15.0%,10.3%
COC(=O)CC(NC1CCN(c2nc(C)c3cc4c(cc3n2)CCC4)CC1)C(=O)OC (configuration not stated),-30.5%,-1.2%
C[N+](C)(CCCOc1ccccc1)c1ccccc1,-2.4%[17.8 µM],-9.2%[17.8 µM]
OC1(c2cccnc2)CCN(Cc2ccc3c(c2)CN(Cc2cccc(F)c2F)CCO3)CC1,?,-4.6%
O=C(O)c1ccc(/C=C2/SC(=S)N(c3cccc(C(F)(F)F)c3)C2=O)cc1,?,?
COC(=O)C1=C(C)N(Cc2ccccc2)C(=O)NC1c1ccccc1 (configuration not stated),?,nt
COc1ccc(C(=O)NCCc2nnc3n2CCN(CC2CC=CCC2)CC3)cc1 (configuration not stated),11.4%,-10.7%
COC/C=C/C1=CC2=CC(=O)C(C)(OC(=O)c3cccs3)C(=O)C2=CO1 (configuration not stated),-4.3%,3.4%
# Additional records.
SMILES,Marburg entry,Lassa entry
CCOc1ccc(NC(=O)CC(C)O)cc1 (configuration not stated),2.8%,-3.9%
OCCN1CCN(Cc2ccc3c(c2)CN(Cc2cccc4ncccc24)CCO3)CC1,-7.7%,1.1%
C[C@]12C=CC(=O)C=C1[C@@H](F)C[C@@H]1[C@@H]2[C@@H](O)C[C@@]2(C)[C@H]1CC[C@]2(O)C(=O)CO,22.9%&33.3%,15.7%&-6.4%
COc1cc(CN2CCOc3ccc(CN4CCC(O)(c5cccnc5)CC4)cc3C2)ccc1F,?,-14.6%
CC(C)[C@@H](CC(=O)N[C@@H]1CCNC[C@H]1C(=O)N[C@H](CC(=O)N[C@@H](CCC(=O)O)CC(=O)O)Cc1c[nH]c2ccccc12)NC(=O)C[C@H](CO)NC(=O)[C@@H]1CCCC[C@H]1N,21.8%,0.2%
CC(C)(C)NCC(O)c1ccccc1Cl (configuration not stated),-16.3%,-11.6%
CNC(=O)c1cncc(C=Cc2c(C)cccc2C)c1,?,34.7%
CNCCCCCCCCSc1nc(C(C)C)ccc1C(=O)c1cccs1,5.62µM*,?
CC(C)C(NS(C)(=O)=O)c1nnc2n1CCN(Cc1cccc3ncccc13)CC2 (configuration not stated),11.0%,-19.0%
Cc1cnc(-n2ncc(C(=O)NCCc3cccnc3)c2C)nc1-c1ccc(F)cc1,?,-13.1%
COCc1ccc(CN2CCOc3ccc(C4=Cc5ccccc5C4)cc3C2)o1,-29.2%,34.6%[activator]
Cc1cc(C(=O)NCc2nnc3n2CCN(Cc2ccc4c(c2)Cc2ccccc2-4)CC3)c(C)o1,7.6%,-16.2%
COc1ccc(CNc2cc(-c3ccccc3CN(C)C)ncn2)c(OC)c1,10µM*,0.6%
CCn1c(-c2ccccc2F)nc2cc(C(=O)NCc3ccc(C)o3)cc(NC(C)=O)c21,3.4%,2.3%
CN1C2CC(=O)CC1C(O)C2 (configuration not stated),5.7%,-14.9%
COc1ccc2c(c1)C(=O)[C@@H](OC(=O)NCc1ccco1)[C@H](c1ccc(OC)c(Br)c1)O2,13.3%,-12.3%
CNc1ccnc(-c2c(C)noc2C)n1,-5.9%,-3.8%
CC(=O)NC(CC(=O)O)C(=O)O (configuration not stated),9.8%,-4.9%
Cc1noc(NS(=O)(=O)c2cccc3c(N(C)C)cccc23)c1C,13.3%,-4.5%
Oc1c(Cl)cc(Cl)c2cccnc12,12.6µM*,?
C=CCNC(N)=S,8.5%,-18.7%
CCOC(=O)/C=C/CCCC=O,17.1%,5.6%
O=C(NCCc1ccccc1)c1cccc(NC(=O)C2CCC2)c1,89.2%[activator],38.0%[activator]

# From PubChem BioAssay
